MITF inhib: MITF inhibition | 37,000 tested, 0.28% active | TRPM1 promoter luciferase, luminescence, 24 h | inhibition, % (test concentration not listed);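 active = most replicates at 85% or more, or half of them and the mean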;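 also: human melanocyte line stably carrying TRPM1 promoter luciferase reporter; 0% = vehicle wells and 100% = a positive control; the first replicate is given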
PD-1 reversal: reversal of PD-1 mediated T-cell inhibition; 29,000 tested, under 10 active; primary human CD4 T cells, PD-L1 beads, CellTiter-Glo 96 h; activation, % (test concentration not listed);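 active = replicate mean of 50% or more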;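 also: 0% = median vehicle wells and 100% = positive control; 100 nL library stock added to about 50 µL; numbers are from one replicate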
YB-1 expr inh: YB-1 expression inhibition; U2OS, qRT-PCR YB-1 vs CDIP delta delta Cp, 16 h; active compounds read high; zero = DMSO, each unit about twofold; 30,000 tested, 0.37% active; delta delta Cp (YB-1 minus CDIP) (no concentration beside the values);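 active = delta delta Cp rounded down to an integer at or above 3, about 3 SD of DMSO wells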;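 also: higher means less YB-1 transcript or more CDIP transcript relative to DMSO; stock transfer was 100 nL into about 100 µL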
Hedgehog inh: Sonic Hedgehog pathway inhibition | Shh-LIGHT2 Gli-luciferase reporter, 30 h | AID 2313 | 22,000 tested, 2.1% active | inhibition, % (test concentration not listed);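 active = replicate mean of 65% or more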;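 also: pathway switched on by Shh-conditioned medium diluted 1 in 25 in low serum; 100 nL library stock added to about 40 µL; 0% = median of neutral wells and 100% = positive control level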
Starred values were filed as active, the others as inactive; x = no result given. Only part of the results is shown. The share of hits here may be higher or lower than overall.

SMILES | MITF inhib | PD-1 reversal | YB-1 expr inh | Hedgehog inh
C[C@@H]1CN([C@H](C)CO)C(=O)c2cccc(NC(=O)C3CC3)c2O[C@H]1CN(C)CC1CCCCC1 | 5 | x | -0.76 | -17
O=C(/C=C/c1ccccc1)c1ccccc1O | x | x | -0.42 | -21
CC(C)NC(=O)N(C)C[C@H]1OCCCC[C@@H](C)Oc2ccc(NS(=O)(=O)c3cn(C)cn3)cc2C(=O)N([C@H](C)CO)C[C@@H]1C | -3 | 2.2 | 0.18 | 72*
C[C@H]1CN([C@@H](C)CO)C(=O)c2cc(N(C)C)ccc2O[C@H]1CN(C)C(=O)Nc1ccc2c(c1)OCO2 | 1 | 1.3 | -0.05 | -1
COc1ccc(C)cc1S(=O)(=O)N1CCCC(C(=O)Nc2ccccc2C(F)(F)F)C1 (centres undefined) | 4 | 0.1 | x | x
CNC[C@H]1Oc2ccc(NC(=O)Nc3ccc(C(F)(F)F)cc3)cc2CC(=O)N([C@H](C)CO)C[C@H]1C | 8 | -0.9 | 0.024 | 8
COc1ccc(C)cc1N(CC(=O)Nc1ccccc1C(=O)O)S(C)(=O)=O | -14 | 0.4 | x | x
COc1ccc(CN(C)C[C@H]2Oc3ccc(NC(=O)C4CCCCC4)cc3CC(=O)N([C@@H](C)CO)C[C@H]2C)cc1 | -12 | x | -0.17 | -8
CCCn1nnc(NC(=O)COc2ccc(Cl)c(C)c2)n1 | -9 | -0.5 | x | x
CC1(C)Cc2nc(-c3ccccc3)nc(SCC(=O)Nc3cccc(C(F)(F)F)c3)c2CO1 | -1 | -1.1 | x | x
C[C@@H]1CN([C@H](C)CO)C(=O)c2cccc(NC(=O)c3cnccn3)c2O[C@H]1CN(C)C(=O)Nc1ccc(C(F)(F)F)cc1 | -2 | -1.0 | 0.16 | -35
Cn1nnc2cc(C(=O)N(CCO)c3ccccc3)ccc21 | -98 | 1.1 | x | x
COc1ccc(CN(C)C[C@H]2Oc3ccc(NC(=O)Nc4ccc(F)cc4)cc3C(=O)N([C@H](C)CO)C[C@@H]2C)cc1 | 1 | x | 0.26 | 15
C[C@H]1CN([C@@H](C)CO)C(=O)c2cc(NC(=O)Nc3ccc4c(c3)OCO4)ccc2O[C@@H]1CN(C)C(=O)NC1CCCCC1 | -3 | 2.7 | -0.49 | 6
C[C@H]1CN([C@@H](C)CO)C(=O)c2cccc(NC(=O)C3CCOCC3)c2O[C@@H]1CN(C)CC1CC1 | 3 | -0.1 | -0.63 | -18
Cc1ccc(OCC(=O)Nc2cccc(-c3nc4ccccc4[nH]3)c2)cc1 | -66 | 0.4 | x | x
Nc1nnc(SCC(=O)NC2CCCCCC2)s1 | 1 | 2.2 | x | x
COc1ccc(CN(C)C[C@@H]2Oc3c(NS(=O)(=O)c4cn(C)cn4)cccc3C(=O)N([C@H](C)CO)C[C@H]2C)cc1 | 1 | 0.8 | 0.009 | -34
COc1ccc(S(=O)(=O)Nc2ccc3c(c2)C(=O)N([C@H](C)CO)C[C@H](C)[C@H](CN(C)C(=O)Nc2c(C)noc2C)OCCCC[C@@H](C)O3)cc1 | 8 | -0.4 | -0.54 | -3
CN(C(=O)CSc1nc(N)c2c3c(sc2n1)CSC(C)(C)C3)c1ccccc1 | 11 | -4.9 | x | x
C[C@@H]1CCCCO[C@@H](CN(C)Cc2ccc(C(=O)O)cc2)[C@@H](C)CN([C@H](C)CO)C(=O)c2cc(NC(=O)Nc3ccc(C(F)(F)F)cc3)ccc2O1 | 3 | 0.8 | -0.57 | x
C[C@@H]1CN([C@H](C)CO)C(=O)Cc2cc(NC(=O)CCCCCC(=O)Nc3ccccc3N)ccc2O[C@H]1CN(C)CC1CCCCC1 | -13 | 0.1 | -0.54 | x
COc1ccc(-c2noc(CN(C(=O)c3c(-c4ccccc4Cl)noc3C)C(C)C)n2)cc1 | 35 | -3.3 | x | x
C[C@@H]1CN([C@H](C)CO)C(=O)Cc2cc(NS(=O)(=O)c3cccs3)ccc2O[C@H]1CN(C)Cc1ccc(C(=O)O)cc1 | -6 | 0.5 | -0.32 | -31
COc1cc2ncnc(Nc3ccc(OCc4ccccc4)cc3)c2cc1OC | -8 | 0.4 | 0.4 | 19
Cc1ccc(C(=O)NCCCNc2ccccc2[N+](=O)[O-])cc1 | -13 | 3.2 | x | x
C[C@@H]1CN([C@H](C)CO)C(=O)c2cc(NC(=O)C3CC3)ccc2O[C@@H]1CN(C)C(=O)Nc1ccc(C(F)(F)F)cc1 | -5 | x | 0.26 | 11
COc1ccc(NC(=O)N(C)C[C@H]2Oc3ccc(NC(=O)Cc4cn(C)c5ccccc45)cc3CC(=O)N([C@@H](C)CO)C[C@@H]2C)cc1 | 12 | 0.9 | -0.062 | -22
Cc1ccc([N+](=O)[O-])cc1N(CC(=O)Nc1ccc(Cl)c(C(F)(F)F)c1)S(C)(=O)=O | 16 | 3.6 | x | x
COC(=O)c1ccc(NC(=O)CC2Sc3ccc(C(F)(F)F)cc3NC2=O)cc1 (centres undefined) | 3 | 1.0 | 0.1 | x

In a second layout: entries from further up.
Values in the order – MITF inhib	PD-1 reversal	YB-1 expr inh	Hedgehog inh
> Cc1ccc(OCC(=O)Nc2cccc(-c3nc4ccccc4[nH]3)c2)cc1
 : -66	0.4	x	x
> Nc1nnc(SCC(=O)NC2CCCCCC2)s1
 : 1	2.2	x	x
> COc1ccc(CN(C)C[C@@H]2Oc3c(NS(=O)(=O)c4cn(C)cn4)cccc3C(=O)N([C@H](C)CO)C[C@H]2C)cc1
 : 1	0.8	0.009	-34
> COc1ccc(S(=O)(=O)Nc2ccc3c(c2)C(=O)N([C@H](C)CO)C[C@H](C)[C@H](CN(C)C(=O)Nc2c(C)noc2C)OCCCC[C@@H](C)O3)cc1
 : 8	-0.4	-0.54	-3
> CN(C(=O)CSc1nc(N)c2c3c(sc2n1)CSC(C)(C)C3)c1ccccc1
 : 11	-4.9	x	x
> C[C@@H]1CCCCO[C@@H](CN(C)Cc2ccc(C(=O)O)cc2)[C@@H](C)CN([C@H](C)CO)C(=O)c2cc(NC(=O)Nc3ccc(C(F)(F)F)cc3)ccc2O1
 : 3	0.8	-0.57	x
> C[C@@H]1CN([C@H](C)CO)C(=O)Cc2cc(NC(=O)CCCCCC(=O)Nc3ccccc3N)ccc2O[C@H]1CN(C)CC1CCCCC1
 : -13	0.1	-0.54	x

Full records, looked up by structure. Order of screens: MITF inhib	PD-1 reversal	YB-1 expr inh	Hedgehog inh
Cc1ccc([N+](=O)[O-])cc1N(CC(=O)Nc1ccc(Cl)c(C(F)(F)F)c1)S(C)(=O)=O is listed with 16	3.6	x	x
COc1ccc(CN(C)C[C@@H]2Oc3c(NS(=O)(=O)c4cn(C)cn4)cccc3C(=O)N([C@H](C)CO)C[C@H]2C)cc1 is listed with 1	0.8	0.009	-34
COc1ccc(NC(=O)N(C)C[C@H]2Oc3ccc(NC(=O)Cc4cn(C)c5ccccc45)cc3CC(=O)N([C@@H](C)CO)C[C@@H]2C)cc1 is listed with 12	0.9	-0.062	-22

The list continues.
SMILES | MITF inhib | PD-1 reversal | YB-1 expr inh | Hedgehog inh
C[C@H]1CN([C@@H](C)CO)C(=O)c2cccc(NS(=O)(=O)c3cccs3)c2O[C@@H]1CN(C)C(=O)Nc1ccc(C(F)(F)F)cc1 | -8 | 1.4 | 0.2 | -37
C[C@H](CO)N1C[C@H](C)[C@H](CN(C)S(C)(=O)=O)Oc2ccc(NS(=O)(=O)c3ccc(F)cc3)cc2C1=O | 2 | -3.3 | -0.81 | x
Cc1ccc([N+](=O)[O-])cc1N(CC(=O)Nc1cccc(Br)c1)S(C)(=O)=O | 15 | 3.3 | x | x
C[C@H](CO)N1C[C@H](C)[C@H](CN(C)Cc2ccc(C(=O)Nc3ccccc3N)cc2)Oc2ccc(NS(=O)(=O)c3cccs3)cc2CC1=O | 23 | -5.8 | 0.14 | x
CCN1C(=O)/C(=C2\C=Cc3ccccc3N2CC)N(C)C1=S | 31 | -3.2 | -0.14 | 26
Cn1nc(CC(=O)Nc2ccc3c(c2)oc2ccccc23)c2ccccc2c1=O | 32 | 1.4 | x | x
CC(C)(C)c1cc(/C=C(\C#N)C(N)=S)cc(C(C)(C)C)c1O | 91* | x | 0.5 | 106*
COc1ccc(NC(=O)N(C)C[C@@H]2Oc3ccc(NS(=O)(=O)c4c(C)noc4C)cc3CC(=O)N([C@@H](C)CO)C[C@@H]2C)cc1 | -15 | x | -0.094 | x
Cc1ccc([N+](=O)[O-])cc1S(=O)(=O)NCCOc1ccccc1Cl | 4 | 0.0 | x | x
C=CC(C)(C)c1cc2cc3ccoc3cc2oc1=O | -56 | 1.6 | -0.1 | -6
CC(=O)OC[C@]12[C@H](OC(C)=O)[C@H](OC(=O)c3ccccc3)[C@@H]3[C@@H](OC(C)=O)[C@]1(OC3(C)C)[C@H](C)C[C@H](OC(C)=O)[C@@H]2OC(C)=O | -18 | -2.1 | 0.14 | 16
CCOc1ccc(NC(=O)CN2C(=O)c3ccccc3S2(=O)=O)cc1 | -1 | 1.4 | x | x
Cc1noc(C)c1NC(=O)N(C)C[C@H]1Oc2c(NS(=O)(=O)c3ccc(F)cc3)cccc2C(=O)N([C@@H](C)CO)C[C@@H]1C | -5 | x | 0.015 | -19
CCOc1ccccc1NC(=O)CSc1nc2ccccc2c(=O)n1-c1ccc(Cl)cc1 | 8 | -3.0 | x | x
O=C(NCc1ccco1)c1cc([N+](=O)[O-])ccc1N1CCOCC1 | 2 | 0.9 | x | x
C[C@@H]1CN([C@@H](C)CO)C(=O)c2cccc(NS(=O)(=O)c3ccccc3)c2O[C@@H]1CN(C)Cc1ccc(-c2ccccc2)cc1 | 1 | -6.7 | -1.2 | 16
C[C@@H]1CN([C@H](C)CO)C(=O)Cc2cc(NC(=O)c3ccncc3)ccc2O[C@@H]1CN(C)Cc1ccc(Cl)c(Cl)c1 | -18 | -1.3 | 0.043 | x
C[C@H]1CN([C@@H](C)CO)C(=O)c2cc(NC(=O)Nc3ccc(F)cc3)ccc2O[C@@H]1CN(C)C(=O)Nc1ccc(F)cc1 | 1 | -0.1 | 0.08 | 1
C[C@H]1CN([C@@H](C)CO)C(=O)Cc2cc(NC(=O)Cc3ccccc3)ccc2O[C@@H]1CN(C)Cc1ccc(C(=O)O)cc1 | -4 | 0.2 | 0.11 | -2
Cc1ccc(S(=O)(=O)NCC(=O)Nc2ccc(F)cc2F)cc1 | -2 | 1.6 | x | x
CCOC(=O)C1=C(C)Nc2ncnn2C1c1ccccn1 (centres undefined) | -8 | 1.9 | x | x
O=C(OCC1OC(Oc2ccc(O)cc2COC(=O)C2(O)C(O)CCC(O)C2O)C(O)C(O)C1O)c1ccccc1 (centres undefined) | -13 | -1.7 | -0.54 | 11
COc1ccc2[nH]c(=O)c(CN(C)S(C)(=O)=O)cc2c1 | 7 | 3.0 | x | x
C[C@H]1CN([C@@H](C)CO)C(=O)c2cccc(NC(=O)CCCCCC(=O)Nc3ccccc3N)c2O[C@H]1CN(C)CC1CCCCC1 | 11 | 1.6 | 0.34 | x
COc1ccc(NC(=O)CSC2=C(C#N)C(c3ccc(Cl)cc3)CC(=O)N2)cc1 (centres undefined) | 6 | 0.2 | x | x
CC(Sc1nnc(N)s1)C(=O)Nc1cccc(Cl)c1 (centres undefined) | -4 | 0.9 | x | x
S=C(Nc1ccccc1)Nc1ccccc1-n1cccc1 | 26 | -3.8 | x | -11
C[C@H]1CN([C@@H](C)CO)C(=O)c2cc(NC(=O)Nc3cccc4ccccc34)ccc2O[C@@H]1CN(C)Cc1ccc(C(=O)O)cc1 | 1 | 0.1 | 0.1 | -3
C[C@H]1CN([C@@H](C)CO)C(=O)Cc2cc(NC(=O)CCC(F)(F)F)ccc2O[C@@H]1CN(C)C(=O)Nc1ccc(F)cc1 | -2 | 0.9 | -0.5 | -20
C[C@@H]1CCCCO[C@@H](CN(C)C(=O)Nc2ccccc2)[C@@H](C)CN([C@H](C)CO)C(=O)c2cc(NC(=O)Nc3ccc4c(c3)OCO4)ccc2O1 | 1 | 0.3 | -0.25 | -17
Cc1cc2c(CO)cc(O)cc2o1 | -9 | 0.9 | -0.029 | -31
COc1ccc(NC(=O)N(C)C[C@H]2Oc3c(NC(=O)Nc4c(C)noc4C)cccc3C(=O)N([C@@H](C)CO)C[C@@H]2C)cc1 | -8 | 3.3 | -0.058 | -6
C[C@H]1CN([C@@H](C)CO)C(=O)c2cccc(NS(=O)(=O)c3ccc(Cl)cc3)c2O[C@H]1CN(C)Cc1ccc(Oc2ccccc2)cc1 | -4 | -0.3 | -0.26 | 49
CCC(=O)Nc1ccccc1-c1nnc(SCc2ccccc2)[nH]c1=O | 9 | 1.3 | x | x
O=C(CSc1nnc(-c2ccccc2F)n1-c1ccccc1)Nc1ccc(Br)cc1 | 3 | -1.3 | x | x
Cc1ccc(S(=O)(=O)Nc2ccc3c(c2)C(=O)N([C@H](C)CO)C[C@H](C)[C@H](CN(C)Cc2ccccc2)OCCCC[C@@H](C)O3)cc1 | 6 | -2.0 | -0.081 | -11
COc1cc(O)c2c(c1)O[C@H](c1ccc(O)cc1)[C@@H](O)C2=O | x | x | 0.16 | -4
NC(=Nc1ccccc1)NC(=O)c1nc(Cl)c(N)nc1N | -84 | x | -0.11 | 13
C[C@H]1CN([C@@H](C)CO)C(=O)c2cc(NC(=O)Nc3ccc(C(F)(F)F)cc3)ccc2O[C@@H]1CN(C)Cc1ccc(C(F)(F)F)cc1 | 95* | -13 | 0.17 | x
Cc1cccc(-c2noc(CN(C(C)C)S(=O)(=O)c3ccc([N+](=O)[O-])cc3)n2)c1 | 12 | 0.9 | x | x

From PubChem BioAssay
